# VDR inhibitor = inhibitors of human vitamin D receptor; P11473; 0.93% of 400,000 active; VDR-SRC2-3 peptide fluorescence polarization, 2 h; Potency, µM, for inactives: max response, negative = inhibition, usual class: inhibitors; active means well fitted inhibition curve with a large enough effect; inconclusive means small, poorly fitted or top-dose-only effect, or another doubt; inactive means no such curve, though single readings can be large or run the other way; further: series mostly up to about 120 µM
# Target sequence (P11473 whole entry, looked up): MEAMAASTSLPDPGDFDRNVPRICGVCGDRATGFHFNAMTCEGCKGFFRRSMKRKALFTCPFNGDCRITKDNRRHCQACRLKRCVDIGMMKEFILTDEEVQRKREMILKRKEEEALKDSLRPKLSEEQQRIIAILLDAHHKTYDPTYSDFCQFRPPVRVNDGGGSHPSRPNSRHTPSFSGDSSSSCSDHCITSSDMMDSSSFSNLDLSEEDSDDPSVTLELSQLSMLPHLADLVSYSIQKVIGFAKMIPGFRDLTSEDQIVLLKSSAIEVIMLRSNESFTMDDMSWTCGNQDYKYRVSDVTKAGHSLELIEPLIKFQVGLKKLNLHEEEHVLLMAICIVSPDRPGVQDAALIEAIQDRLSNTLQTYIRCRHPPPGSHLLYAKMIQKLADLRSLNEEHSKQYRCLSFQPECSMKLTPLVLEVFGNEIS
#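 Signal is fluorescence polarization, reporting how far test compounds block the interaction of VDR with the SRC2-3 coregulator peptide after a 2 h room-temperature incubation.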
# * hit, by the source's call; ? = inconclusive; & = joins results of further samples; ! = a repeat was not active; [ ] = remark or other dose. On the % scale 0 is the no-effect control and ±100 the full control effect; potency means the concentration at half of the fitted maximal effect.
# The first three compounds (preview)
mol	VDR inhibitor
CCN(CC)C(=O)c1ccc(NC(=O)CCn2nc(-c3ccc(Cl)cc3)c3ccccc3c2=O)cc1	?
CC1=C(C)CC2(CC1)C(=O)NC(=O)NC2=O	-12%
COC(=O)C1=C(c2c(C)noc2C)C[C@@H]2CC[C@H]1N2C(=O)NCCOc1ccc(OC)cc1	-9%

# Main list (from the top)
mol	VDR inhibitor
CCN(CC)C(=O)c1ccc(NC(=O)CCn2nc(-c3ccc(Cl)cc3)c3ccccc3c2=O)cc1	?
CC1=C(C)CC2(CC1)C(=O)NC(=O)NC2=O	-12%
COC(=O)C1=C(c2c(C)noc2C)C[C@@H]2CC[C@H]1N2C(=O)NCCOc1ccc(OC)cc1	-9%
O=C(/C=C\c1ccc(Cl)cc1)N[C@@]12CCC(=O)[C@@H]3Oc4c(O)ccc5c4[C@@]31CCN(CC1CC1)[C@@H]2C5	13%
CC1OC(OC2C(O)CC(OC3C(O)CC(OC4CCC5(C)C(CCC6C5CCC5(C)C(C7=CC(=O)OC7)CCC65O)C4)OC3C)OC2C)CC(O)C1O (configuration not stated)	10%
COc1c2c(cc3c1OCO3)CC[N+](C)=C2	-2%&0%&-11%
O=[N+]([O-])c1ccc(N2CCCC2)c2ncccc12	0%
O=C1/C(=C\c2ccccc2)C2OCC=C3CN4CCC56c7ccccc7N1C5C2C3CC46 (configuration not stated)	-15%
O=C(NC(=O)c1c(F)cccc1F)Nc1ccc(Cl)cc1	11%
Cc1nn(Cc2ccccc2Cl)c(C)c1C(=O)OCC(=O)NC1CCS(=O)(=O)C1 (configuration not stated)	3%
O=C(O)c1ccccc1-c1c2cc(Br)c(=O)cc-2oc2[c]([Hg])c(O)c(Br)cc12	2.2µM*
O=c1c2ccccc2nc(C[n+]2ccccc2)n1-c1cccc(C(F)(F)F)c1	-8%
CN1CCN(c2ncc3ncc(=O)n(C)c3n2)CC1	8%
COc1ccc(-n2c(O)c(/C(C)=N/N3CCCCCC3)c(=O)[nH]c2=O)cc1	2%
Cc1[nH]c2ccc(OC(F)(F)F)cc2c1CCNCc1cccc([N+](=O)[O-])c1	-7%
COc1cccc(NP(=O)(Oc2ccc(Cl)cc2)Oc2ccc(Cl)cc2)c1	?
Cc1ccc(-c2nc3ccccc3c(=O)n2-c2nccs2)cc1	1%
c1ccc(N2CC[C@@]3(CCCNC3)C2)cc1	50µM*
COC(=O)C1=C(c2ccc(Cl)c(C(F)(F)F)c2)C[C@@H]2CC[C@H]1N2C(=O)NCCNC(C)=O	-21%
O=C1CN=C(c2cccs2)c2c(sc3c2CCCC3)N1	10%
CC1CC[C@@]2(NC1)OC1CC3C4CC[C@@H]5CC(O)CC[C@@]5(C)C4CC[C@]3(C)C1C2C (some centres not stated)	-10%
Oc1ccc(C2=CCNCC2)cc1O	-10%
COC(=O)C1=CO[C@@H](C)[C@@H]2CN3CC[C@]4(C(=O)Nc5c4ccc(OC)c5OC)[C@H]3C[C@H]12	-19%
CC[C@H]1CN2CCC1C[C@H]2[C@H](O)c1ccnc2ccc(OC)cc12 (some centres not stated)	-5%
Cc1ncsc1CCCl	18%&-13%&-6%
O=C(/C=C/c1ccc2c(c1)OCO2)c1c(O)n(CCC2=CCCCC2)c(=O)[nH]c1=O	?
O=C(Nc1ccccc1)c1c(O)[nH]c(=S)[nH]c1=O	5%
CCCN1CCC[C@@H]2Cc3nc(N)ncc3C[C@H]21	-4%&0%
Cc1nc2ccccc2c(=O)n1-c1ccc(Br)cc1[N+](=O)[O-]	-5%
COC(=O)C1=C(c2cc3ccccc3s2)C[C@@H]2CC[C@H]1N2C(=O)NCCCOC(C)C	-8%
Cc1cc(OCC(=O)N[C@@H](Cc2ccccc2)C(=O)O)c2c3c(c(=O)oc2c1)CCCC3	-25%
CCOC(=O)c1ccccc1C(=O)OCC	-9%&2%
CCC(=NCCO)c1c(O)n(-c2ccccc2)c(=O)[nH]c1=O	-9%
O=C(O)c1c[nH]c2ccc(S(=O)(=O)N(CCCl)CCCl)cc12	10%
O=C1NC(=O)C(=Cc2cc3c(cc2[N+](=O)[O-])OCO3)C(=O)N1	40µM*
N#C/C(=C\c1ccc(O)cc1)C(=O)O	13%&2%
CCn1c(C)c(C(=O)Nc2ccc(OC)cc2)c2cc(OC)ccc21	-17%
COc1ccc(C(=O)Oc2cccc3cccnc23)cc1S(=O)(=O)N1CCOCC1	6%
COc1ccc(CCC(C)NCCc2ccccc2)cc1 (configuration not stated)	3%
CC/C(=N\Nc1ccccc1)c1c(O)n(-c2ccc(OC)cc2)c(=O)[nH]c1=O	-1%
CC(C)N1C(=O)NC(=O)C2(Cc3cc([N+](=O)[O-])ccc3N(C)C2c2ccccc2)C1=O (configuration not stated)	-27%
COC(=O)C1=C(c2cccc(OC)c2OC)C[C@@H]2CC[C@H]1N2C(=O)N1CCC(O)CC1	6%
CC(C)CCOC(=O)c1c(N)n(CC2CCCO2)c2nc3ccccc3nc12 (configuration not stated)	-5%
O=C(O)c1nn(Cc2ccc(Cl)c(Cl)c2)c2ccccc12	-5%
COc1ccc(CCC(=O)N2CCC3(CC2)OCCO3)cc1	4%
CCC(=NCc1ccc(F)cc1)c1c(O)n(C)c(=O)n(C)c1=O	-2%
CC(C)(C)NC(=O)C1CC2CCCCC2CN1 (configuration not stated)	-8%
C=C(C)c1cc2cc(C(C)=O)c(O)cc2o1	-3%&-2%
Cc1c(Oc2cc(NN3CCCCC3)c([N+](=O)[O-])cc2[N+](=O)[O-])cccc1[N+](=O)[O-]	-29%
Cc1nc2ccccc2c(=O)n1-c1ccc(Cl)cc1Cl	4%
Oc1ccc(-[n+]2c(-c3ccccc3)cc(-c3ccccc3)cc2-c2ccccc2)cc1	-18%
Cc1ccc2c(c1)N(CCC(=O)N1CCC3(CC1)OCCO3)C(=O)C(C)O2 (configuration not stated)	-3%
CN(C)C(=O)Oc1ccc(NC(=O)N2CCOCC2)cc1	-4%
NCCc1c(Cc2ccccc2)[nH]c2ccccc12	6%
CC(C)C[C@H](NC(=O)[C@H](Cc1ccccc1)NC(=O)CNC(=O)[C@H](CO)NC(=O)[C@@H](N)Cc1ccc(O)cc1)C(=O)N[C@H](C(=O)O)[C@H](C)O	1%
CCC(=NCCO)c1c(O)n(C2CCCCC2)c(=O)[nH]c1=O	15%

# Going on with the list:
mol	VDR inhibitor
CCCN1CCc2cccc3c2[C@H]1Cc1ccc(O)c(O)c1-3	7.9µM*!
CC(C)=CC1C(C(=O)OCc2coc(Cc3ccccc3)c2)C1(C)C (configuration not stated)	?
O=c1[nH]c(=O)n(-c2cccc3ccccc23)c(O)c1C=NCCCn1ccnc1	4%
CN1CCCN(C(=O)COc2ccc(F)cc2F)CC1	19%
CCc1nc2ccc(Br)cc2c(=O)n1-c1ccccc1C(F)(F)F	-11%
CN1CCc2cc3c(cc2[C@@H]1[C@@H]1OC(=O)c2c1ccc1c2OCO1)OCO3	-2%
COC(=O)N1C(c2ccccc2)C1c1ccccc1 (configuration not stated)	9%
CC(=O)NS(=O)(=O)c1ccc(NC(=O)c2cccn(Cc3ccc(Cl)cc3)c2=O)cc1	-3%
Cn1c(O)c(/C=N/N2CCOCC2)c(=O)[nH]c1=S	-14%
COc1ccc(OC)c2c1CCC1NCCOC21 (configuration not stated)	-4%
C/C(=N\N1CCCCCC1)c1c(O)n(-c2ccccc2)c(=O)[nH]c1=O	0%
C=CCOC(=O)C1=C(C)OC(N)=C(C#N)[C@@]12C(=O)N(CC(N)=O)c1ccccc12	4%
O=[N+]([O-])c1ccccc1CNCCc1c[nH]c2ccccc12	-21%
C[C@]12CCC3C(CCC4=C/C(=N/OCC(=O)NC(CCC(=O)O)C(=O)O)CC[C@@]43C)C1CCC2O (some centres not stated)	-15%
CCC/C=N/O	11%
O=C(C(=C1N(Cc2ccc(Cl)nc2)CCN1Cc1ccc(Cl)nc1)[N+](=O)[O-])C(Cl)Cl	-5%
c1csc(CN2CC[C@@]3(CCCNC3)C2)n1	?
O=C1NC(=O)C(=Cc2ccc(OCC(=O)N3CCOCC3)cc2)C(=O)N1	0%
CCCC/C(C)=C/[C@@H](NP(=O)(c1ccccc1)c1ccccc1)c1ccccc1	-3%
O=C(Nc1ccon1)c1cccn(Cc2ccccc2)c1=O	9%
ClCCN(CCCl)c1ccc(-n2cnc3c(Cl)ncnc32)cc1	-4%
NNC(=O)CN1C(=O)CN=C(c2ccccc2)c2cc(Br)ccc21	9%
O=C1C2(Cl)C3(Cl)C4(Cl)C(Cl)(Cl)C5(Cl)C3(Cl)C1(Cl)C5(Cl)C24Cl (configuration not stated)	6%
CC(C)(O)/C=C/C(=O)C(C)(O)C1C(O)CC2(C)C3CC=C4C(C=C(O)C(=O)C4(C)C)C3(C)C(=O)CC12C (configuration not stated)	?
O=C(COc1ccccc1)N1CCN(CC(O)COc2ccccc2)CC1 (configuration not stated)	3%
Cc1cccn2c(=O)c3c(nc12)N1CCCCCC1C1(C3)C(=O)N(C)C(=O)N(C)C1=O (configuration not stated)	0%
O=c1[nH]c(=O)n(-c2ccc(Cl)cc2)c(O)c1C=Nc1ccc(S(=O)(=O)Nc2nccs2)cc1	19%
NC(N)=N/N=C/c1ccc(N(c2ccccc2)c2ccccc2)cc1	-7%
CCN1CCN(S(=O)(=O)c2cnc(Cl)c(Br)c2)CC1	-23%
O=P(N[C@@H](c1ccccc1)[C@@H]1C[C@H]1CO)(c1ccccc1)c1ccccc1	-7%
CCOc1cc(C2C(C#N)=C(N)Oc3c2c(=O)oc2ccccc32)ccc1OC(=O)c1cccs1 (configuration not stated)	-3%
C[C@]12CCC3C(CC[C@H]4[C@H](O)[C@H](O)CC[C@]34C)C1CCC2=O (some centres not stated)	-11%
O=C1C2CCCN2C(c2ccc(Cl)cc2)N1c1ccccn1 (configuration not stated)	-16%
CCCCC(C)C(OC(=O)CC(CC(=O)O)C(=O)O)C(CC(C)CC(O)CCCCC(O)CC(O)C(C)N)OC(=O)CC(CC(=O)O)C(=O)O (configuration not stated)	2%
O=C(O)Cc1cnc[nH]1	4%&-9%
Brc1ccc2[nH]cc(C=NN3CCCCCC3)c2c1	-15%
C1CNC2NCCNC2N1 (configuration not stated)	-10%
O=C(CNC1CCCCC1)N1CCC2(CC1)OCCO2	13%
O=P(C(Cl)Cl)(N1CCCCC1)N1CCCCC1	5%
Cc1ccc(-n2c(C)cc(/C=C3/C(=O)NC(=O)N(C)C3=O)c2C)cc1	17%
O=C(COc1ccccc1)c1cn(Cc2ccccc2)c2ccccc12	-3%
CNC1(c2ccccc2Cl)CCCCC1=O (configuration not stated)	-16%&3%&6%
Cc1cc(OCC(=O)N2CCN(CC(=O)N3CCOCC3)CC2)c(C(C)C)cc1Cl	-3%
CCCCN1C(=O)NC(=O)/C(=C/c2cnc(SC)nc2)C1=O	25µM*
COC(=O)C1=C(c2cccc(OCc3ccccc3)c2)C[C@@H]2CC[C@H]1N2C(=O)NCc1cccc(C(F)(F)F)c1	-11%
CC(=NCc1cccnc1)c1c(O)n(C2CCCCC2)c(=O)[nH]c1=O	30%[activator]
COC1=CC=C2[C@H]3Cc4ccc(OC)c5c4[C@@]2(CCN3C)C1O5 (some centres not stated)	-2%
Cn1c(O)c(C(=Nc2ccccc2)SCc2ccccc2Cl)c(=O)n(C)c1=O	-1%
CCCCCCCCCc1ccc(O)cc1	7%
COc1cc(O)c(C(=O)O)c(-c2cc(O)c(O)cc2C)c1	-21%
CN1CCc2nc3sc(C(=O)NC4CC4)c(N)c3cc2C1	2%
CN(C(=O)CNC(=O)OCc1ccccc1)c1ccc(Br)cc1C(=O)c1ccccc1Cl	4%
O=C(Nc1ccc2c(c1)OCO2)c1cccn(Cc2ccc(F)cc2)c1=O	9%
CC(C)(C)C(=O)c1cn(CC(=O)NCc2ccco2)c2ccccc12	-20%
C=Cn1ccnc1P(=S)(c1ccccc1)c1nccn1C=C	13%
C=CCn1c(O)c(C(C)=Nc2cc(OC)ccc2OC)c(=O)[nH]c1=O	-6%

# Next compounds
mol	VDR inhibitor
C=C(C)C1Cc2c(ccc3c(=O)c4c(oc23)COc2cc(OC)c(OC)cc2-4)O1 (configuration not stated)	-4%&-2%
CN1[C@@H]2CC[C@H]1CC(O)C2 (some centres not stated)	-1%
Cn1c(O)c(C=NC2CC(C)(C)NC(C)(C)C2)c(=O)n(C)c1=O	-8%
CCC1=Nc2cc(C(=O)N3CCC4(CC3)OCCO4)ccc2Sc2ccccc21	8%
CCOC(=O)c1ccc(NC(=O)N2C[C@@H]3C[C@@H](C2)c2cccc(=O)n2C3)cc1	?
Cc1cc([C@@H]2CCCN2C)on1	9%&4%
CC1(C)N2CC3([N+](=O)[O-])CN1CC([N+](=O)[O-])(C2)C3	-6%
Cc1cnc(-n2c(=S)[nH]c3ccccc3c2=O)s1	-1%

# Reformatted with each value named: entries from further up.
structure: Cc1cnc(-n2c(=S)[nH]c3ccccc3c2=O)s1
  VDR inhibitor: -1%
structure: CN1[C@@H]2CC[C@H]1CC(O)C2 (some centres not stated)
  VDR inhibitor: -1%

# (next part)
mol	VDR inhibitor
C=CCN1CC[C@]23c4c5ccc(O)c4O[C@H]2/C(=N/NC(=O)c2ccccc2)CC[C@@]3(O)[C@H]1C5	?
COc1ccc(N/N=C/c2c(O)n(-c3cccc(C)c3)c(=O)[nH]c2=O)cc1	?
CC1CCC2C(C)C(=O)OC3OC4(C)CCC1C32OO4 (configuration not stated)	15%
C=CCN1C(=O)NC(=O)C(CCc2ccncc2)(CCc2ccncc2)C1=O	-2%

# Only part of the results is shown (hit frequency here may not be typical).
